NPYLR7 ag – agonists of mosquito NPYLR7 receptor, primary screen, cell-based, Aedes aegypti, calcium fluorescence, mosquito biting behavior. 0.15% of 270,000 active. activation, % at 10 µM. HEK293T NPYLR7/Galpha15, GCaMP6s calcium fluorescence; in the data active = activation above about 40%;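 note: 0% = vehicle and 100% = reference agonist at the receptor; some compounds past the cut are filed as inactive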
NPYLR7 ag max-min – second read-out of NPYLR7 ag, no call of its own (marks repeat the call); activation, %; measured here: Max-Min RFU normalised activation; some inactives read as strong as hits;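 span of the calcium signal over five minutes; 0% = vehicle and 100% = native peptide agonist; compound fluorescence can raise it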
Starred values were filed as active, the others as inactive; & = joins results of further samples.

Order of results – NPYLR7 ag	NPYLR7 ag max-min
CC/C=C\CCCN1C[C@H](N)C[C@H]1C(=O)NC(C)C
  2.7	2.6
COc1cccc(NC(=O)N2CCC3(CC2)C(=O)N(CC(=O)NCc2ccc4c(c2)OCO4)CN3c2ccccc2)c1
  -2.6	8.2
O=C(CCc1cc(Cl)no1)N1CCOC(c2ccc(Cl)cc2)C1 (stereo not drawn)
  19.0	11.8
COc1ncccc1NS(=O)(=O)c1c(C)c(C)c(C)c(C)c1C
  -23.1	-26.8
OCC#Cc1csc(CN2CC3C[C@@H]4CC2C[C@H](C3)C4)c1
  1.8	9.4
CCSC1CCCCN(c2nnc(C)c(C)c2C#N)C1 (stereo not drawn)
  1.0	-2.1
CCC(CC)C(=O)N1CCN(c2ccc(Nc3ccc(C)cc3)nn2)CC1
  2.6	1.3
CCCN1CCCn2c1nc1c2c(=O)[nH]c(=O)n1C
  -2.4	-4.2
COc1cccc2cc(C(=O)Nc3ccccc3F)c(=O)oc12
  0.9	-6.3
COc1ccc(C(=O)N2CCC(C(NC(=O)C3CC3)C(=O)N3CCCCC3)CC2)cc1 (stereo not drawn)
  6.8	10.6
C=C(C)Cn1c(SCC(=O)N/N=C\c2cc(OC)ccc2OC)nnc1-c1ccc([N+](=O)[O-])cc1
  -4.9	5.9
COc1ccc(C2=NN(C(=O)CCl)C(c3nc4ccccc4[nH]3)C2)cc1 (stereo not drawn)
  -3.4	-8.4
Cc1ncc2c(c1CNC(=O)CN1CCCCC1)CCN(C(=O)C1CC(=O)c3ccccc31)C2 (stereo not drawn)
  11.1	4.2
Cc1c(C(=O)NC2CC2)sc(=O)n1Cc1ccc(C(=O)N(C)C)cc1
  14.3	9.3
Cc1cccc(CN(C)Cc2ccc(-c3nc(C(F)(F)F)c(C)c(=O)[nH]3)cc2)n1
  -6.6	-12.7
CCn1cc(C#N)c(=O)n(CC(=O)Nc2cccc(-c3csc(C)n3)c2)c1=O
  -0.4	-2.1
COC(=O)c1cc2ccccc2c(CN2CCC(C(=O)N3CCCCCC3)CC2)c1O
  6.3	1.5
CC1=CC[C@@H]2CN(C(=O)CCN3Cc4ccccc4C3=O)C[C@@H]2C1
  6.1	1.0
COc1ccc(N2C(=O)CSC2c2ccccc2NC(=O)c2cccs2)c(OC)c1 (stereo not drawn)
  20.5	23.6
CCN1CCN(CC(=O)N2N=C(c3cccc(F)c3)CC2c2ccccc2OC)CC1 (stereo not drawn)
  -0.2	0.0
COc1ccc(-n2ncc(Oc3cccc(OC)c3)c(Nc3ccc(C(=O)NCc4ccc(F)cc4)cc3)c2=O)cc1
  7.9	3.7
CC1CN(C(=O)C(O)C2CCOCC2)CC(c2ccccc2)O1 (stereo not drawn)
  0.4	-3.7
Cc1ccc(Cl)c(Oc2cc(N3CCN(C(=O)C(C)C)CC3)ncn2)c1
  -9.3	-6.3
Cc1cc(C)nc(NS(=O)(=O)c2ccc(NC(=O)Cn3cnc4ccccc4c3=O)cc2)n1
  -5.5	-10.5
COc1cc(NC(=O)Cn2nc(C(F)(F)F)c(Cl)c2C)c(OC)cc1Cl
  -5.4	-9.9
CC1CCCCN1S(=O)(=O)Nc1ccnc(C(=O)N(C)C)c1 (stereo not drawn)
  5.3	4.5
Cc1ccc2c(c1)C1(SCCN1C(=O)c1ccc(F)cc1)C(=O)N2Cc1ccccc1F (stereo not drawn)
  4.1	5.8
O=C(CN1Cc2ccc(Nc3cccc(F)c3)nc2C1=O)NCCCO
  3.8	-0.1
CC1CN(c2cc(Oc3ccccc3Cl)ncn2)CCN1C(=O)COCc1ccccc1 (stereo not drawn)
  -9.9	-6.5
CC(C)Oc1ccc(-c2noc(-c3cc(-c4ccccc4)n[nH]3)n2)cc1
  2.1	-0.2
O=C1Cn2c(c(-c3nc(-c4ccc(Cl)cc4)cs3)c(=O)c3ccccc32)N1
  -2.0	-3.8
Cn1nnnc1SCc1nnc(-c2ccccc2Br)o1
  0.9	7.7
CC(C)Oc1ccc(-c2cc(C(=O)N/N=C\c3ccccc3)[nH]n2)cc1
  1.2	-2.7
C=C(C)CN(CC)Cc1ccc(C(=O)N2C3CCC2CC(Oc2cccc(C(F)(F)F)c2)C3)cc1 (stereo not drawn)
  15.2	-1.8
COc1ccc(CN2C(=O)O[C@@H]3CN(c4cnccn4)C[C@@H]32)cc1OC
  3.7&-8.9	1.1&-9.8
Cc1ccc2c(c1)N(C)C(=O)c1cc(NS(C)(=O)=O)ccc1O2
  7.5	2.8
Cc1c(C)n2c3c(=O)n(Cc4ccccc4F)c(=O)n(C)c3nc2n1C
  4.3	4.2
NS(=O)(=O)c1ccc(NC2CC=CC2)c2ncccc12
  -2.0	43.6
CCOc1cc(C(=O)OCC(=O)C=C2N(C)c3ccccc3C2(C)C)cc(OCC)c1OCC
  3.2	2.9
OCc1ccc(-c2c(-c3ccccc3)ncn2CCN2CCOCC2)o1
  -2.1	-6.7
COc1cccc(C(=O)Oc2coc(CSc3nc(C)cc(C)n3)cc2=O)c1OC
  -15.6	-10.1
FC(F)(F)C1(C(F)(F)F)N=C2C=CC=CN2C(c2ccccc2)=N1
  -0.3	-1.6
COc1ccc(-c2noc(CCC(=O)NC3CCCC3)n2)cc1
  -0.6	11.5
C=CCNC(=O)C(=O)NCc1ccco1
  12.9	12.9
Cc1cc(=O)[nH]c(-n2nc(C3CC3)cc2NC(=O)c2cc(Cl)ccc2Cl)n1
  -1.0	0.0
Cc1ccc(NC(=O)N2CCCC(OCc3ccccc3C)C2)cc1 (stereo not drawn)
  -7.1	-5.3
COc1cccc(-c2nn(CC(N)=O)c(=O)c3nc(C)sc23)c1
  2.4	0.2
CNC(=O)NC(=O)C(NC1CCCc2ccccc21)c1ccccc1 (stereo not drawn)
  1.8	2.4
O=[N+]([O-])c1ccc(-c2nc(-c3ccncc3)no2)cc1
  -6.7	-12.9
CCCc1nc(N2CCN(C(=O)Nc3ccc(F)cc3F)CC2)c2c3c(sc2n1)CCCC3
  -11.7	-11.9
Clc1ccc2nc(N3CCc4ccccc43)c3nncn3c2c1
  -0.8	-2.9
CCC(CNS(=O)(=O)N(C)C)Oc1ccccc1 (stereo not drawn)
  7.7	2.3
Nc1ccc(S(=O)(=O)Nc2ccc([N+](=O)[O-])cc2O)cc1
  -0.6	8.8
Cc1cccc(NC2CCN(C(=O)c3ccc(C)[nH]c3=O)CC2)c1
  -0.5	-2.2
Cc1ccc(-c2nc3ccc(Cl)cn3c2NC(C)(C)CC(C)(C)C)cc1
  10.9	9.8
O=C(NCC1CN(c2ccccc2)C(=O)O1)C(c1ccccc1)c1ccccc1 (stereo not drawn)
  4.6	4.8
Cc1noc(C)c1C(=O)NC(C)c1ccc(N2CCN(C)CC2)cc1 (stereo not drawn)
  -17.5	-23.3
Nc1nnc(-c2n[nH]c(=O)c3ccccc23)s1
  3.9	3.6
O=C(NC1CCN(c2cnccn2)CC1)c1ccccc1C1CCNC1 (stereo not drawn)
  7.4	5.1
CCNC(=O)CN1CCN(C(=O)c2cc(Cl)cc(Cl)c2)CC1
  -0.7	-2.1

(list continues)
Order of results – NPYLR7 ag	NPYLR7 ag max-min
CC(=O)OC(C)(C)C(=O)/C=C/c1ccccc1
  -7.6	-11.3
CCCCc1ccc(-c2ccc(-n3cncc3C(=O)NCCF)cc2)cc1
  25.5	28.0
Cc1nc(NCCNC(=O)Nc2ccc(F)cc2F)cc(N2CCOCC2)n1
  -0.1	-1.6
CCc1nc2ccc(C(=O)NCCOc3ccc(OC)cc3)cn2c1N(C)Cc1ccc(OC)cc1
  -4.5	-8.6
CCOC(=O)c1c2c(n(C)c1C)C=C(Br)C(=O)C2=O
  -1.6	-6.5
CN(c1nc(-c2ccccc2)cs1)C1CCS(=O)(=O)C1 (stereo not drawn)
  -0.4	-3.2
C=CCC1(CC=C)CCCN1C(=O)CC1C(=O)NCCN1Cc1ccc(C)o1 (stereo not drawn)
  -0.2	-2.3
Cc1ncc2c(c1CNC(=O)CSc1ccccc1)CCN(C(=O)c1ccc3c(c1)OCCO3)C2
  -0.6	-0.4
COc1cc(NC(=O)Cn2nc(C(F)(F)F)cc2C)cc([N+](=O)[O-])c1
  1.9	-0.6
Cc1c(C(=O)N2CCN(c3cccc(C(F)(F)F)c3)CC2)cc(-c2ccc(Cl)cc2)n1-c1ccc(F)cc1
  12.9	10.1
CCCCN(CCC(=O)N1CCN(C(=O)OCC)CC1)c1nc(Cc2cccc(OC)c2)ns1
  -3.6	-4.8
Cc1cc(C)c(C(=O)NCC(=O)c2ccccc2)c(C)c1
  2.3	3.7
COc1ccc(OC)c(C2c3[nH]c4ccccc4c3CCN2C(=O)C2CCCC2)c1 (stereo not drawn)
  1.0	2.7
CC(C)N(Cc1nc(C(=O)N2CCN(c3cccc(C(F)(F)F)c3)CC2)cs1)C(=O)Nc1cccc(Cl)c1
  12.2	18.7
Cc1cccc(NC(=O)N2CCC3(CCN(C)C3)CC2)c1
  -2.8	-7.5
CCOCCn1c(=O)c2c(OCC)c(C)cnc2n(C)c1=O
  4.8	2.4
CC(=O)NNC(=O)CSc1nc2ccccc2o1
  -2.5	-10.7
O=C(CC(c1ccccc1)c1ccco1)N1CCC2(CCCO2)CC1 (stereo not drawn)
  9.5	5.1
Cc1ccc2n1CCN(C(=O)CC1OCCc3ccccc31)C2C (stereo not drawn)
  6.2	2.9
Cc1cc(C)nc(SCCCn2c(N3CCC(C)CC3)nc3c2c(=O)[nH]c(=O)n3C)n1
  -1.9	-6.4
CCN1CCc2c(sc(NC(=O)c3ccc([N+](=O)[O-])s3)c2-c2nc3ccccc3s2)C1
  -4.5	-6.4
Cc1ccc(C(C)(C)C)c(OCCC#N)c1
  6.7	2.9
CC(C)S(=O)(=O)CC(=O)N(Cc1ccsc1)c1ccccc1
  9.8	5.2
COCc1ncc(CN2CCN(c3nccc4ccccc34)CC2)cn1
  17.9	16.6
CC(C#N)Sc1ccccc1Br (stereo not drawn)
  0.1	-5.5
C=CCOCC(O)CN(CCCOC)Cc1cccn1Cc1cccc(OC)c1 (stereo not drawn)
  7.4	14.7
COc1ccc(NC(=O)CSc2nc(=O)n3ccccc3n2)cc1
  3.3	1.6
CC(=O)N[C@@H]1c2ccccc2C2(CCN(C(=O)c3cccc(F)c3F)CC2)[C@H]1OCc1ccccc1
  3.1	0.7
c1ccc(CCc2nc(-c3cccc(-n4cnnc4)c3)n[nH]2)cc1
  -0.2	-6.0
CS(=O)(=O)c1ccc(N2CCCC2C2CCCc3ccccc32)c(S(C)(=O)=O)c1 (stereo not drawn)
  0.4	-1.0
CN1CCCCC1CCNC(=O)c1ccc(N2CCNCC2)nc1 (stereo not drawn)
  2.3	3.6
CCN(CC)CCNc1nc2c(c(=O)n(C)c(=O)n2C)n1C
  0.1	-1.1
CC(Sc1n[nH]c(-c2ccc(Cl)cc2)n1)C(=O)NCc1ccco1 (stereo not drawn)
  -0.7	4.5
O=C(NCCNc1ccc(Nc2ccncc2)nn1)Nc1ccccc1Cl
  3.4	-1.6
CC1CN2C(=O)CN(C(=O)CCc3ccccc3)CC2c2ccccc21 (stereo not drawn)
  34.4	34.4
COc1ccc(C2=NN(C(=O)c3cccs3)C(c3ccccc3O)C2)cc1 (stereo not drawn)
  -3.6	-7.6
CCOC(=O)C(C(=O)OCC)=C1OC(=O)c2ccccc21
  -8.0	-10.7
CCSc1ccccc1C(=O)Nc1cc(-c2cccs2)nn1-c1nc(C)c(C)c(=O)[nH]1
  8.2	5.6
CCOC(=O)c1cc(-c2ccc(C)c(C)c2)n(-c2ccc(C(=O)NCC3CCCO3)cc2)n1 (stereo not drawn)
  2.2	7.8
CNC(=O)CN1CCN(c2nc(C)c(Cc3ccccc3)c(C)n2)CC1
  -0.9	-0.5

Four entries from above in a different format:
COCc1ncc(CN2CCN(c3nccc4ccccc34)CC2)cn1
  NPYLR7 ag: 17.9 | NPYLR7 ag max-min: 16.6
CC(C#N)Sc1ccccc1Br (stereo not drawn)
  NPYLR7 ag: 0.1 | NPYLR7 ag max-min: -5.5
C=CCOCC(O)CN(CCCOC)Cc1cccn1Cc1cccc(OC)c1 (stereo not drawn)
  NPYLR7 ag: 7.4 | NPYLR7 ag max-min: 14.7
COc1ccc(NC(=O)CSc2nc(=O)n3ccccc3n2)cc1
  NPYLR7 ag: 3.3 | NPYLR7 ag max-min: 1.6

Continuation.
Order of results – NPYLR7 ag	NPYLR7 ag max-min
CCOc1ccccc1C(=O)N1CCC(=O)N(C)c2ccccc2C(OC)C1 (stereo not drawn)
  4.7	8.8
COc1ccc(-c2nn(-c3ccccc3C)cc2CN(C)C(C)c2ccon2)cc1F (stereo not drawn)
  7.2	2.7
COc1ccc(CN(Cc2ccco2)C(=O)CCCOc2ccccc2)c2ccccc12
  -2.1	-9.9
COc1ccc(C(C[N+](=O)[O-])n2nc(C)cc2C)cc1 (stereo not drawn)
  6.8	0.4
COCCN1Cc2cc(OC)ccc2N(CC(C)(C)O)CCC1=O
  1.6	14.5
COC(=O)CC(=O)N1CCN(C(C(=O)N2CCOCC2)C2CCCC2)CC1 (stereo not drawn)
  -9.5	-12.0
CC(CNC(=O)Nc1ccc(CCC(=O)N2CCCC2)cc1)N(C)C (stereo not drawn)
  7.4	4.6
COc1cc(CNc2ccc3ncc(-c4ccc5c(c4)OCO5)n3n2)cc(OC)c1OC
  5.3	1.0
COc1ccc(-c2nc3ccccn3c2NC(=O)c2cccc(Cl)c2)cc1
  -2.2	4.7
O=C1CC[C@@H]2CO[C@@H](c3ccccc3)N3C(=O)CC[C@H]3CO[C@H](c3ccccc3)N12
  1.4	-9.7
CCOC(=O)c1c(C)[nH]c(C(=O)C(C)N2CCN(C(=O)OCC)CC2)c1C (stereo not drawn)
  -3.0	-2.8
Fc1ccc(F)c2c1CCN(Cc1cc3n(n1)CCNC3)C2
  14.4	9.3

Compound activity as filed in PubChem.

This is a subset; rates above refer to the full screens.
